Bioassay records as filed in PubChem BioAssay.
Rce1 inhib: yeast Ras-converting enzyme inhibition | Q03530 | yeast membranes, quenched prenylated peptide cleavage fluorescence | calls only | hit rate 0.27% among 290,000;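 active = fall in fluorescence gain of 50% or more versus controls, with final raw signal at or below 3038400; inconclusive = same 50% fall but final raw signal above 3038400; inactive = fall in fluorescence gain under 50%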;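 note: plate controls were neutral control wells for no effect and wells lacking membranes for full effect; tested at 10 µM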
Yeast UUG start: modulators of start codon recognition fidelity in yeast | S. cerevisiae UUG-firefly luciferase reporter, luminescence/redox ratio | activity score, % at 18.7 µM | hit rate 0.13% among 350,000 | AID 602363;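 active = replicate mean at a twofold rise or more, about +100% in these data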;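 note: firefly luciferase made from a UUG start codon reports start codon fidelity; reporter light over untreated wells divided by growth signal over untreated wells; some hits fall short of that in this replicate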
CSC inhib: blocks cancer stem cells; AID 2717; cancer stem cell-like cells viability, luminescence; hit rate 1.1% among 300,000; inhibition, % at 7.5 µM;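 active = mean at 75% or more and at least half the replicates too; inconclusive = mean and replicates disagree; tested in HMLE shEcad cells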;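 note: 0% = median of negative and 100% = median of positive control wells; the first replicate is given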
MT1-MMP act inh: blocks activation of human MT1-MMP | HT1080 RFP-PRO-GFP cells, GFP/RFP ratio fluorescence, overnight; percent of plate control window, DMSO zero | GFP/RFP ratio change, % at 20 µM | hit rate 0.061% among 360,000 | AID 651647;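 active = GFP/RFP ratio change of at least 30% with cell ATP level not reduced by more than half and red fluorescence within 50% of control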; note: strong numbers were not always called active
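Test system: HT1080 RFP-PRO-GFP cells; Benchmarks: DMSO and RFP-L50D-GFP cell wells; Timing: cells overnight before dosing, compound overnight, 37 °C, 5% CO2; Compound: one 20 µM compound dose with 1% DMSO; Read-out: GFP/RFP fluorescence ratio.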
PABP FP inh: blocks human PABP binding to poly(A) RNA. P11940. fluorescence polarization. inhibition, % at 35 µM. hit rate 1% among 290,000;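 active = 50% or more with normal probe brightness, or confirmed in later tests; inconclusive = above 50% with abnormal brightness, or retests that disagree; inactive = below 50% or failed in later tests; about a fifth of its hits are not listed in these tables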;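 note: calls also rest on retests at 20 µM and on dose response follow-up; controls were probe without protein and protein plus probe with vehicle; some compounds called inactive have numbers as strong as hits; many hits fall short of the cut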
Target sequence (P11940 whole entry, looked up): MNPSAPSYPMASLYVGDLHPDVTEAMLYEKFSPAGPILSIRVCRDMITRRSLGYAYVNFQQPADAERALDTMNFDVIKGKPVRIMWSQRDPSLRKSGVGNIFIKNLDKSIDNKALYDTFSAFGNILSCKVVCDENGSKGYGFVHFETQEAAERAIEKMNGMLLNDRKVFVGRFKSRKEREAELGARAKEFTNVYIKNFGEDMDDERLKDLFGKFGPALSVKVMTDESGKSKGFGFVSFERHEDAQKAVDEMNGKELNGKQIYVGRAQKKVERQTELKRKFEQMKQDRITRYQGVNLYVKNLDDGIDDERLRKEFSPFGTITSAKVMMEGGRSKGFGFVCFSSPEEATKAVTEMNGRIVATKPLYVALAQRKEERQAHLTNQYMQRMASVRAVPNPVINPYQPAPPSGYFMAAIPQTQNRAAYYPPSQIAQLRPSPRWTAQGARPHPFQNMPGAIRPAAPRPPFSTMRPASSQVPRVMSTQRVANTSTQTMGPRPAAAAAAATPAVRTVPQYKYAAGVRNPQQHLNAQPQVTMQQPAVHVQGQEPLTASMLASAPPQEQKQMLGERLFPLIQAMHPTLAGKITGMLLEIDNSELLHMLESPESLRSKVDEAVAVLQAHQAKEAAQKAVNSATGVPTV
eIF4H inh: inhibitors of RNA binding by human eIF4H. inhibition, % at 35 µM. eIF4H fluorescence polarization binding assay. hit rate 0.94% among 290,000. AID 2012. Q15056;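 active = 50% or more with normal probe brightness, or confirmed in later tests; inconclusive = above 50% with abnormal brightness, or retests that disagree; inactive = below 50% or failed in later tests; about a fifth of its hits are not listed in these tables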;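 note: calls also rest on retests at 20 µM and on dose response follow-up; 0% = protein and probe with vehicle and 100% = probe without protein; strong numbers were not always called active; many hits fall short of the cut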
Env fusion inh: inhibitors of HIV Env-mediated cell fusion; AID 651610; inhibition, % at 12.3 µM; hit rate 1.1% among 360,000; HeLa-JRFL Env/CEM21 cell fusion, luciferase;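 active = mean replicate inhibition score of at least 50 and every replicate individually at or above 50; inconclusive = only one of the two criteria met; inactive = mean below 50 and not all replicates reaching 50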;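 note: 0% = plate neutral controls and 100% = maraviroc near 300 nM; one replicate is shown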
MT1-MMP act inh RFP: second read-out of MT1-MMP act inh, no call of its own (marks repeat the call); RFP signal change, %; measured here: RFP expression control read;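 0 = vehicle wells; hits needed this value within 50% of zero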
Numbers without * were called inactive; i = inactive; u = inconclusive; x = no result given.

Letter code: A = Rce1 inhib; B = Yeast UUG start; C = CSC inhib; D = MT1-MMP act inh; E = MT1-MMP act inh RFP; F = PABP FP inh; G = eIF4H inh; H = Env fusion inh
Cc1ccc(C(=O)C(C)Oc2ccc3ccc(=O)oc3c2)cc1 (stereo unspecified)
  A: i | B: -3 | C: 1 | D: -2 | E: 2 | F: 6 | G: -6 | H: -4

O=C(COc1ccccc1)Nc1cc(Cl)ccc1Cl
  A: i | B: -23 | C: -3 | D: 1 | E: 3 | F: 7 | G: -7 | H: -47

O=C1c2cccc3c([N+](=O)[O-])ccc(c23)C(=O)N1c1nccs1
  A: i | B: -23 | C: 79* | D: -283 | E: -3 | F: 44 | G: 33 | H: -340

CCOC(=O)c1c(N)sc2c(O)c(Br)ccc12
  A: i | B: 2 | C: 1 | D: -4 | E: 3 | F: 3 | G: -2 | H: -10

Cc1ccc(Nc2nnc(SCC(=O)NC3CC3)s2)cc1
  A: x | B: -19 | C: x | D: 0 | E: 3 | F: x | G: x | H: 9

Cc1ccc(CNC(=O)c2ccc(N3CCC4(CC3)CC(c3cccc(Br)c3)=NO4)c(NC(=O)c3c(Cl)cccc3Cl)c2)cc1
  A: x | B: -3 | C: 6 | D: 0 | E: 2 | F: x | G: x | H: -5

CN(C(=O)COC(=O)c1ccccc1SCC(=O)N1CCCC1)C1(C#N)CCCCC1
  A: x | B: -3 | C: -15 | D: 0 | E: 1 | F: x | G: x | H: 0

CCOC(=O)CNc1c(-c2ccc(F)cc2)nc2cnccn12
  A: i | B: -8 | C: -18 | D: -4 | E: 0 | F: 14 | G: 8 | H: 15

O=C(CNc1cc(S(=O)(=O)N2CCCC2)ccc1OCC(F)(F)F)Nc1cccc(C(F)(F)F)c1
  A: i | B: 1 | C: -1 | D: 0 | E: -20 | F: 4 | G: -6 | H: 23

O=C(NNS(=O)(=O)c1ccccc1)C1CCN(S(=O)(=O)c2ccc(Cl)cc2)CC1
  A: i | B: -3 | C: 4 | D: 0 | E: 7 | F: -1 | G: -7 | H: -48

CCOC(=O)C1CCN(C(=O)c2ccc(S(=O)(=O)Nc3ccccc3OC)cc2)CC1
  A: x | B: 3 | C: x | D: 5 | E: -8 | F: x | G: x | H: -39

Cc1cc(Nc2nc3c(c(=O)n(C)c(=O)n3C)n2C)n(-c2ccc(Cl)cc2)n1
  A: i | B: -9 | C: 24 | D: 4 | E: 6 | F: -7 | G: 0 | H: x

COc1ccc(CCN2CC(C(=O)N(C)Cc3ccc(C)o3)CCC2=O)cc1 (stereo unspecified)
  A: i | B: -13 | C: -4 | D: -3 | E: 0 | F: -4 | G: -4 | H: -29

CNc1nc(-c2ccccc2)nnc1C(F)(F)F
  A: i | B: -13 | C: -10 | D: 4 | E: -5 | F: 4 | G: -9 | H: -439

c1ccc(N2CCN(c3nc4ccccc4n4nnnc34)CC2)cc1
  A: i | B: 10 | C: 35 | D: -33 | E: 3 | F: -17 | G: u | H: x

COC(=O)c1ccc(NC(=S)NCC2CC2)cc1
  A: i | B: x | C: -2 | D: 6 | E: 0 | F: 5 | G: -4 | H: 5

Cc1ccc(NC(=O)C2C3C=CC4(CN(Cc5cccnc5)C(=O)C24)O3)cc1 (stereo unspecified)
  A: i | B: -11 | C: 3 | D: -1 | E: -1 | F: -13 | G: -12 | H: -7

O=C(c1ccco1)c1coc2c1cc(O)c1ccccc12
  A: i | B: -24 | C: 52 | D: 3 | E: 0 | F: 35 | G: 40 | H: -88

CC1C(=O)N2CCCc3cc(NC(=O)C4CC4)cc1c32 (stereo unspecified)
  A: i | B: -13 | C: -2 | D: 2 | E: 3 | F: x | G: x | H: -9

CC1(C)C2CCC1(C)C(Nc1ccccc1)C2 (stereo unspecified)
  A: i | B: x | C: x | D: 17 | E: 16 | F: 2 | G: -5 | H: 10

C=CCC[C@H](Cc1ccc(F)cc1)C(=O)OC[C@@H](Cc1c[nH]c2ccccc12)NC(=O)[C@H](CC=C)CC(=O)NCCO
  A: x | B: 4 | C: 6 | D: 0 | E: -8 | F: x | G: x | H: 30

CC(=O)Nc1cccc(NC(=O)Nc2ccc(F)cc2F)c1
  A: i | B: x | C: -12 | D: 4 | E: 7 | F: -21 | G: -4 | H: 2

Cc1ccc(N2CC(C(=O)N3CCN(c4ccccn4)CC3)CC2=O)cc1 (stereo unspecified)
  A: x | B: 1 | C: x | D: 1 | E: 3 | F: x | G: x | H: -5

CCNC(=O)CC1C(=O)N(c2ccc(OC)cc2)C(=O)N1Cc1ccc(OC)cc1 (stereo unspecified)
  A: i | B: 6 | C: -5 | D: 0 | E: 3 | F: 0 | G: 4 | H: 6

O=C1CCC(C(=O)N2CCSCC2)CN1CCc1ccccc1 (stereo unspecified)
  A: i | B: -9 | C: 14 | D: -16 | E: -4 | F: 2 | G: 10 | H: 0

Compound profiles, from the list above.
`CC(=O)Nc1cccc(NC(=O)Nc2ccc(F)cc2F)c1` as listed: Rce1 inhib = i; Yeast UUG start = x; CSC inhib = -12; MT1-MMP act inh = 4; MT1-MMP act inh RFP = 7; PABP FP inh = -21; eIF4H inh = -4; Env fusion inh = 2
`CN(C(=O)COC(=O)c1ccccc1SCC(=O)N1CCCC1)C1(C#N)CCCCC1` as listed: Rce1 inhib = x; Yeast UUG start = -3; CSC inhib = -15; MT1-MMP act inh = 0; MT1-MMP act inh RFP = 1; PABP FP inh = x; eIF4H inh = x; Env fusion inh = 0

Next part:
Letter code: A = Rce1 inhib; B = Yeast UUG start; C = CSC inhib; D = MT1-MMP act inh; E = MT1-MMP act inh RFP; F = PABP FP inh; G = eIF4H inh; H = Env fusion inh
Cc1nnc(NC(=O)CSc2nnc(CCc3nc4ccccc4[nH]3)n2C)s1
  A: i | B: x | C: 1 | D: -4 | E: -3 | F: -10 | G: -4 | H: -27

COc1cccc(/C=N/NC(=O)CNC(=O)c2ccc(S(=O)(=O)N3CCCC3)cc2)c1OC
  A: i | B: -13 | C: -3 | D: 1 | E: 0 | F: -1 | G: -2 | H: 2

CCOc1ccc(C(=O)NCC2CCCO2)cc1 (stereo unspecified)
  A: i | B: -8 | C: -10 | D: 2 | E: -1 | F: -10 | G: -11 | H: -60

Cc1cccc(N(CC(=O)NCc2ccc(F)cc2)C(=O)c2csnn2)c1C
  A: i | B: x | C: -3 | D: 4 | E: 1 | F: 3 | G: 0 | H: 4

O=C(CSc1nc(O)c(C2CCCCC2)c(=O)[nH]1)NCC1CCCO1 (stereo unspecified)
  A: i | B: -19 | C: -1 | D: -3 | E: -1 | F: x | G: x | H: -104

Cc1ccc([C@@H]2C[C@H]3[C@@H](CN2S(=O)(=O)c2ccc(C)cc2)C(=O)C[C@@H](c2ccccc2F)N3S(=O)(=O)c2ccc(C)cc2)cc1
  A: x | B: -19 | C: x | D: -6 | E: -9 | F: x | G: x | H: -9

CCn1c(=NC(=O)CS(=O)(=O)c2ccc(C)cc2)sc2cccc(OC)c21
  A: i | B: -13 | C: 43 | D: -3 | E: -11 | F: x | G: x | H: 75*

CCOc1ccc(C(C)=O)cc1COC(=O)c1cc([N+](=O)[O-])ccc1N1CCOCC1
  A: i | B: -13 | C: 6 | D: -6 | E: -9 | F: x | G: x | H: -7

CC(=O)Oc1ccc(/C=C2\N=C(C3CCCCC3)OC2=O)cc1
  A: i | B: x | C: -1 | D: -3 | E: -3 | F: -2 | G: -2 | H: 7

COc1cccc2sc(Nc3nc4ccc(NC(C)=O)cc4s3)nc12
  A: i | B: x | C: 43 | D: -2 | E: -11 | F: 9 | G: -12 | H: 0

C/C=C/c1ccc(OCC(O)CN2CCCCCCC2)c(OC)c1 (stereo unspecified)
  A: i | B: -2 | C: 40 | D: 1 | E: 0 | F: 6 | G: -6 | H: 5

CCCOc1ccc(Br)cc1CSC(=N)N
  A: x | B: -5 | C: 26 | D: -1 | E: -14 | F: -4 | G: -10 | H: 62*

CCOC(=O)Cc1csc(NC(=S)NC(=O)c2cc(OC)c(OC)c(OC)c2)n1
  A: i | B: 11 | C: -5 | D: 14 | E: 2 | F: 6 | G: -6 | H: -8

O=C(Oc1cccc(Cl)c1)N1CCOCC1
  A: i | B: -11 | C: -10 | D: -1 | E: 1 | F: 4 | G: -8 | H: -4

Cc1csc(=O)n1CCC(=O)OCC(=O)Nc1ccc(Cl)cn1
  A: i | B: 2 | C: -5 | D: -1 | E: 1 | F: x | G: x | H: 3

CCN1CCc2nc3ccccc3c(C(=O)Nc3ccc(C#N)cc3)c2C1
  A: i | B: x | C: -10 | D: 0 | E: 3 | F: -2 | G: -1 | H: 8

O=C(CCC(=O)c1ccc(F)cc1)Nc1cccc(S(=O)(=O)Nc2cccc(Cl)c2)c1
  A: i | B: x | C: 42 | D: 4 | E: -5 | F: 18 | G: 5 | H: 8

COc1cc(C(=O)NCc2nnc(SCC(=O)Nc3nc4ccc(C)cc4s3)o2)cc(OC)c1OC
  A: i | B: x | C: 1 | D: -2 | E: -5 | F: 0 | G: -4 | H: -23

Cc1cccc(-n2ncc3c(NCCc4ccc(S(N)(=O)=O)cc4)ncnc32)c1
  A: i | B: -22 | C: 4 | D: -4 | E: 0 | F: 1 | G: 4 | H: 19

COC(=O)c1sccc1NC(=O)Nc1cccc([N+](=O)[O-])c1
  A: i | B: -2 | C: -19 | D: -3 | E: -3 | F: 7 | G: -2 | H: 10

Cc1ccc(NC(=O)Nc2nc3ccc(S(C)(=O)=O)cc3s2)cc1
  A: x | B: -8 | C: x | D: -8 | E: -3 | F: x | G: x | H: 4

Cc1ccc([N+](=O)[O-])cc1S(=O)(=O)N(C(=O)c1ccncc1)c1ccc2oc3c(c2c1)CCCC3
  A: i | B: x | C: 55 | D: 4 | E: 0 | F: u | G: -2 | H: -2

CCOc1ccccc1N(CC(=O)Nc1c(C)n(C)n(-c2ccccc2)c1=O)S(=O)(=O)c1ccccc1
  A: i | B: x | C: -8 | D: -1 | E: 4 | F: 0 | G: -4 | H: 5

Cc1[nH]c(-c2ccc(F)cc2)cc1C(=O)N1CCN(c2ccccc2)CC1
  A: i | B: -6 | C: 2 | D: -3 | E: -7 | F: 12 | G: 4 | H: -22

O=C(CN1CCN(C(=O)c2ccccc2F)CC1)Nc1ccc(Br)cc1
  A: i | B: 0 | C: 17 | D: 0 | E: -7 | F: 6 | G: -11 | H: x

Letter code: A = Rce1 inhib; B = Yeast UUG start; C = CSC inhib; D = MT1-MMP act inh; E = MT1-MMP act inh RFP; F = PABP FP inh; G = eIF4H inh; H = Env fusion inh
CC(C)c1nnc(NC(=O)c2ccc(N3C(=O)CCC3=O)cc2)s1
  A: i | B: -13 | C: 0 | D: 1 | E: 3 | F: -14 | G: -15 | H: -22

COc1ccc(C2(C(=O)N3CCOCC3)CCOCC2)cc1OC
  A: i | B: 55 | C: -6 | D: 5 | E: 7 | F: 3 | G: 0 | H: x

CCCN1CCN(c2nc(-c3cccs3)nc3ccccc23)CC1
  A: i | B: x | C: 1 | D: 10 | E: -2 | F: 8 | G: -12 | H: x

CCCS(=O)(=O)NC(=O)C1(C)CCN(C(=O)Cc2cccc(OC)c2)C1 (stereo unspecified)
  A: x | B: -19 | C: x | D: -4 | E: 2 | F: x | G: x | H: -5

COc1ccc(C(=O)/C=C/c2ccsc2)cc1CSCC(=O)O
  A: i | B: -5 | C: 5 | D: 4 | E: 6 | F: 4 | G: 30 | H: -12

Cc1ccc(-c2nnc(N3CCN(C(=O)c4cccs4)CC3)c3ccccc23)cc1
  A: i | B: x | C: 1 | D: -2 | E: -11 | F: 6 | G: -3 | H: 24
